# Screening results deposited in PubChem BioAssay by several laboratories.
# PrP 5UTR inh: inhibition of PrP 5' UTR reporter expression | 340,000 compounds, 0.35% hits | cell-based PrP 5' UTR mRNA reporter, plate reader | inhibition, % (test concentration not listed);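 active = every replicate at 50% or more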;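 also: 0 = median of the neutral control wells; tested in H4 reporter cells; numbers are from one replicate; inactives centre near -14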
# RN4220 kill: kills Staphylococcus aureus RN4220; AID 1259311; S. aureus RN4220 growth, OD600, 16 h; 330,000 compounds, 0.33% hits; inhibition, % (no concentration beside the values);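 active = z-score of -3 or lower and OD600 up to 0.18 on both plates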;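 also: plate controls were untreated cells for no effect and reference antibiotic for full effect; stock transfer was 100 nL into about 80 µL; one replicate is shown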
# BJeLR lethal: BJeLR cell viability loss | inhibition, % (no concentration beside the values) | BJeLR (HRASV12) viability, CellTiter-Glo ATP luminescence, 48 h; reference of the scale not given here | 300,000 compounds, 0.17% hits;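 active = replicate mean above 50%; inconclusive = above 50% but judged a plate artefact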;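 also: 50 nL library stock added to about 25 µL; numbers are from one replicate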
# Mtb hypoxia inh: Mtb hypoxia fluorescent reporter inhibition | 300,000 compounds, 0.1% hits | fluorescence inhibition, % (concentration not given with the values) | M. tuberculosis hypoxia-regulated fluorescent reporter, fluorescence;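 active = 35 to 45% if threefold the growth effect, above 45% if 1.5-fold the growth effect; inactive = the rest, general growth blockers included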;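 also: wells of about 50 µL received 100 nL stock; 0% = vehicle wells and 100% = reference inhibitor wells; whole bacteria with a GFP reporter of the hypoxia response; strong numbers were not always called active; many hits fall short of the cut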
# Bead autofluor: counter-screen for toxin protease inhibitors: compound fluorescence. 360,000 compounds, 3.1% hits. compound autofluorescence counterscreen, microsphere flow cytometry; hits give high values. fluorescence intensity (concentration not given with the values). AID 624483;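 active = at least 3 SD above the mean of all compounds, about 16000 in these data; inconclusive = too few beads counted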;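 also: 100 nL of 1 mM stock went into each well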
# Sa ugtP lethal: kills S. aureus RN4220 lacking UgtP. S. aureus RN4220 ugtP deletion, OD600 growth, 16 h; some inactives read as strong as hits. growth inhibition, % (test concentration not listed). 330,000 compounds, 0.54% hits;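 active = z-score under -3 and OD600 up to 0.15 on both plates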;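 also: plate controls were untreated wells for no effect and antibiotic for full effect; wells of about 80 µL received 100 nL stock; the first replicate is given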
# Mtb hypoxia inh growth: further read-out of Mtb hypoxia inh, marked with its call; growth inhibition, %; measured here: M. tuberculosis growth (absorbance);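 0% = vehicle and 100% = reference antibiotic; read after six days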
# Active calls of the source: *; ? = inconclusive; nt = no result given. Not a hit list, and some 4% of all compounds hit somewhere here.
SMILES,PrP 5UTR inh,RN4220 kill,BJeLR lethal,Mtb hypoxia inh,Mtb hypoxia inh growth,Bead autofluor,Sa ugtP lethal
CCSc1nnc(NC(=O)[C@@H](NC(=O)c2ccccc2)C(C)C)s1,-15,3.9,-2,5,7,2156,1
C/C(=N\NC(=O)c1cc(C(C)(C)C)[nH]n1)C12CC3CC(CC(C3)C1)C2,-25,nt,1,nt,nt,4139,nt
CC(OC(=O)c1cc(S(=O)(=O)N(C)c2ccccc2)ccc1Cl)C(=O)Nc1ccc2c(c1)OCCO2 (stereo not drawn),-10,-2.1,4,2,7,2394,-8
Cc1cccc(NC(=O)CSc2nsc(SCC(=O)Nc3cccc(C)c3)c2C#N)c1,-13,-6.5,3,6,-2,2453,-13
Cc1ccc(NC(=O)Cc2ccc(-n3cccc3)cc2)c(C)c1,-27,-0.1,-11,-7,12,2434,-7
Cc1ccc(/C=C/C(=O)Nc2ccc([N+](=O)[O-])c(NC(=O)/C=C/c3ccc(C)o3)c2)o1,-13,2.0,-29,0,7,2367,-1
Cc1ccc(C=N/N=C2/NC(=O)C(CC(=O)Nc3ccc(Cl)cc3)S2)o1 (stereo not drawn),nt,2.5,nt,7,-1,nt,3
Cc1ccc(N(C(=O)c2snc(C(N)=O)c2N)C(CC(C)C)C(=O)NC2CCCC2)cc1 (stereo not drawn),-22,-2.9,3,1,7,3844,8
Cc1noc(C)c1COC(=O)c1ccc2c(c1)S(=O)(=O)c1ccccc1C2=O,0,14,-3,-1,10,9516,4
COc1ccc(N(C(=O)CNC(=O)c2ccco2)C(C(=O)NC2CCCC2)c2ccco2)cc1 (stereo not drawn),-4,2.3,1,2,6,5429,4
COc1ccc(Oc2ccc(/C=C/C(=O)c3ccc(O)cc3)cc2[N+](=O)[O-])cc1,-23,9.8,-5,11,7,2520,-5
CCOc1ccccc1C(=O)OCC(=O)Nc1ncc(C(F)(F)F)cc1Cl,-9,1.3,-7,1,-9,21522*,-5
CNc1cc(=O)n(C)c(=O)n1-c1ccccc1,-26,3.2,-6,2,7,5500,2
COc1ccc(-c2csc(N(CCCN(C)C)C(=O)c3ccc(C(C)(C)C)cc3)n2)cc1,-6,-5.3,-7,2,4,3915,4
O=C(CN1CCCCC1)NN=Cc1ccccc1OCc1ccccc1,nt,7.0,nt,6,5,nt,8
Cc1cccc(C(=O)N[C@H](C(=O)OCC(=O)NC(=O)c2cccn2C)C(C)C)c1,-21,-0.5,-1,-4,8,2229,7
C=CCn1c(SCC(=O)Nc2nnc(C)s2)nnc1-c1cccnc1,-5,-0.3,3,-13,-1,5006,9
CC(NC(=O)C(Cc1ccccc1)N1C(=O)C2C3CCC(C3)C2C1=O)c1ccccc1 (stereo not drawn),13,5.9,-4,9,4,?,6
COC(=O)C1=C(c2cccc(OCc3ccccc3)c2)CC2CCC1N2C(=O)NCc1ccccc1OC (stereo not drawn),nt,-6.5,nt,11,13,nt,3
Cc1ccccc1Cn1c(=O)n(C)c(=O)c2sccc21,-15,-4.0,-13,1,2,3985,0
COc1ccc(NC(=O)CN2C(=O)C(C)SC(C)C2=O)cc1 (stereo not drawn),-88,9.9,7,-4,-22,2423,0
C/C(CC(=O)Nc1ccc([N+](=O)[O-])cc1)=N/NC(=O)C1CC12CCC2 (stereo not drawn),-21,nt,1,nt,nt,4653,nt
N#Cc1cn(Cc2ccco2)c(=O)[nH]c1=O,-38,0.4,nt,5,0,3467,1
O=c1[nH]cnc2ccc([N+](=O)[O-])cc12,-1,-2.6,5,-5,12,4777,-9
O=C1NC(=O)C2(N1)c1ccccc1-c1ccccc12,-16,4.1,nt,21,12,4268,10
CCc1ccc2c(COC(=O)C3CC(=O)N(CCc4ccccc4)C3)cc(=O)oc2c1 (stereo not drawn),-21,-0.9,nt,-6,-1,5138,-1
CCOC(=O)c1cnn(-c2ccccc2)c1-c1ccccc1,-7,7.6,6,nt,nt,3786,18
Cn1cc(CCNC(=O)CC2C(=O)NCCN2CC(c2ccccc2)c2ccccc2)cn1 (stereo not drawn),-26,6.9,-2,9,-3,4831,3
COc1ccc(C=CC2=NC(=CN(C)C)C(=O)O2)cc1,nt,5.0,nt,12,11,nt,-2
Cc1c(NC(=O)/C(C#N)=C/C2CC=CCC2)c(=O)n(-c2ccccc2)n1C (stereo not drawn),-19,1.8,5,7,4,3648,0
O=C(OC(c1ccc(NS(=O)(=O)c2ccccc2)cc1)(C(F)(F)F)C(F)(F)F)c1ccccc1,4,25,-2,3,-2,9180,31
CCC(C)(C)n1nnnc1C(c1ccc(F)cc1)N1CCN(C(=O)c2ccco2)CC1 (stereo not drawn),-13,3.0,-16,9,5,5967,6
COc1ccc(-c2n[nH]c3c2C(c2ccc(OC)c(OC)c2)N(c2ccccc2)C3=O)cc1 (stereo not drawn),-23,2.3,-7,-8,-1,11527,1
O=C(c1ccccc1)N1CC(COc2ccccc2)OC(c2ccco2)O1 (stereo not drawn),-22,1.3,2,nt,nt,5047,1
CCn1cc(C=c2sc3n(c2=O)C2c4ccccc4OC(C)(N=3)C2C(=O)OC)c(C)n1 (stereo not drawn),nt,7.2,nt,18,8,nt,7
NS(=O)(=O)c1ccc(NC(=S)NC2CCCC2)cc1,-17,2.9,-5,16,3,2559,0
COc1ccc(-c2csc3ncnc(N4CCN(c5ccccc5)CC4)c23)cc1,-9,-5.3,-2,5,-2,3484,49
COc1ccc(C(CC(=O)O)NC(=O)c2sc3ccccc3c2Cl)cc1 (stereo not drawn),-16,4.0,1,14,2,1936,1
CCC(Oc1ccccc1C)C(=O)Nc1ccc(S(=O)(=O)Nc2cc(C)on2)cc1 (stereo not drawn),-17,36,13,10,15,5317,32
COc1ccc(-c2noc(-c3ccccc3C(=O)NCc3ccco3)n2)cc1OC,nt,-0.6,20,-14,0,8327,-2
COc1ccc(/C=C2\SC(=O)N(CC(=O)Nc3cccc(C)c3)C2=O)cc1O,-3,4.2,6,1,0,nt,2
O=C(Cn1c(=S)[nH]c2ccccc2c1=O)N1CCN(c2ccc(F)cc2)CC1,-53,-0.5,3,-7,1,3799,-2
COc1ccccc1-n1nnnc1SCC(=O)NC1CC1,-25,1.0,7,-1,2,?,3
CC(C)C(=O)Nc1ccc(Sc2ccc(F)cc2)cc1,-19,-0.9,0,8,10,8933,-3
COC(=O)c1ccc(N(C(=O)CNC(=O)c2ccco2)C(C(=O)NC2CCCC2)c2ccco2)cc1 (stereo not drawn),-10,1.7,-2,nt,nt,3793,6
Cn1c(=O)c2c(SCC(=O)N3CCOCC3)nc(-c3ccccc3Cl)nc2n(C)c1=O,-19,1.4,-5,7,0,5859,0
S=c1[nH]nc(-c2ccco2)n1/N=C/c1c(Cl)cccc1Cl,-14,nt,2,nt,nt,5063,nt
Cc1cc(Cl)ccc1NNC(N)=S,-25,-2.8,3,6,8,4361,6
COc1ccc(S(=O)(=O)N2CCC(C(=O)N(CC(C)C)C3CCS(=O)(=O)C3)CC2)cc1OC (stereo not drawn),-20,1.2,-14,4,10,nt,8
Cc1ccc(C(=O)N2CC2C)cc1 (stereo not drawn),-18,5.0,nt,11,-3,3004,10
CCOc1ccc(-n2c(O)c(/C=N/c3ccnn3Cc3ccncc3)c3ccccc3c2=O)cc1,-15,5.0,-1,3,6,3395,7
O=C(C1CCC1)N1CCN(c2ccccc2)CC1,-17,1.9,21,4,19,3697,-1
Cn1c(=O)c2c(nc(N3CCN(Cc4ccccc4)CC3)n2CC(=O)c2ccccc2)n(C)c1=O,nt,1.5,11,1,14,10692,0
CCN(CCNC(=O)C1CCN(Cc2nc(-c3cccc(Cl)c3)oc2C)CC1)c1ccccc1,-21,-6.7,8,1,6,20469*,-19
CC(C)[C@H](NC(=O)c1ccccc1)C(=O)Nc1ccc2c(c1)OCO2,-2,2.2,nt,3,3,3919,6
CCOC(=O)c1sc(=S)n(-c2ccc(OC)cc2)c1N,-23,1.3,6,7,-1,nt,4
Clc1ccc(-c2nc(NCCN3CCOCC3)c3ccccc3n2)cc1,-15,-8.1,2,7,27,5971,-15
Cc1cc(C(=O)Nc2ccc(Nc3ccccc3)cc2)ccc1[N+](=O)[O-],-22,0.7,6,4,2,3154,3
COc1ccc(CN2CCCC(C(=O)c3ccc(Cl)cc3)C2)c(OC)c1 (stereo not drawn),-18,2.6,-3,-1,8,3875,8
Cc1ccc(NC(=O)CN2C(=O)CCSc3ccc(S(=O)(=O)N4CCCC4)cc32)cc1,-15,3.6,4,18,9,5296,6
# Later entries.
SMILES,PrP 5UTR inh,RN4220 kill,BJeLR lethal,Mtb hypoxia inh,Mtb hypoxia inh growth,Bead autofluor,Sa ugtP lethal
CC1CCN(C(=O)CSc2nnc(Cc3cccn3C)n2-c2ccc(F)cc2)CC1,-5,2.4,2,nt,nt,5782,3
COC(=O)CN1C(=O)C2(C(C#N)=C(N)Oc3ccccc32)C2=C1CC(C)(C)CC2=O (stereo not drawn),-3,2.9,6,4,11,22010*,1
O=C(NCC(=O)N1CCN(S(=O)(=O)c2ccccc2F)CC1)c1ccc(Br)o1,0,-1.4,11,-1,4,?,-2
Cc1nnc(SCC(=O)NC2CCC(C)CC2)s1 (stereo not drawn),-22,nt,8,nt,nt,4079,nt
CCC(=O)c1ccc(OCC(=O)OCC(=O)Nc2c(C)n(C)n(-c3ccccc3)c2=O)cc1,-23,nt,-5,nt,nt,5633,nt
CC(=O)c1cccc(NC(=O)CCN2C(=O)C3CC=CCC3C2=O)c1 (stereo not drawn),-1,-2.9,nt,-9,7,3913,0
CCOc1cc(/C=C2/N=C(C)C(C(=O)OC)=C2O)ccc1O,-24,1.6,1,1,2,4289,1
COCCN1C(=O)c2oc3c(C)cc(C)cc3c(=O)c2C1c1cccc(O)c1 (stereo not drawn),-17,5.9,-3,0,2,9531,-1
COc1ccc(/C=C/C(=O)c2c(O)cc(C)oc2=O)c(OC)c1,-36,-16,8,8,2,3399,100*
CCN(C(=O)CN1CCN(c2ccccc2OC)CC1)c1c(N)n(Cc2ccccc2)c(=O)[nH]c1=O,-18,4.9,-3,12,7,4068,-2
NC(=O)NOCc1ccc(F)cc1Cl,-4,-2.0,-2,-1,10,4804,-4
COc1ccc(CCCc2nnc(SCC(=O)Nc3cc(C)ccc3C)o2)cc1,1,-3.5,-2,1,6,9644,6
Cc1ccc2c(c1)N(CC(=O)NC1CCC(C)CC1)C(=O)c1cccnc1O2 (stereo not drawn),-1,-4.4,-10,nt,nt,4711,4
COc1ccccc1C(=O)Nc1ccc(OC(C)C(=O)N2CCOCC2)cc1 (stereo not drawn),-8,4.3,nt,13,9,3415,7
Cc1cc[n+](C2=C([O-])c3ccccc3C(=O)/C2=N\S(=O)(=O)c2cccs2)cc1C,9,19,4,6,2,1858,-2
Cc1ccc(NC(=O)c2cc3nc(C)cc(C)n3n2)cc1,-71,21,-6,17,15,20310*,14
CCCn1cc(CN2CCC(n3nccc3NC(=O)C(OC)c3ccccc3)CC2)c(C)n1 (stereo not drawn),-8,0.7,3,7,0,4756,4
COc1cc(C2C(C(=O)c3ccc(C)o3)=C(O)C(=O)N2CCc2ccccc2)ccc1O (stereo not drawn),-13,26,-4,-3,9,2491,37
Cc1cc(C)c2c3c(sc2n1)C(=O)N(c1ccccc1C)CC(=O)N3,-24,2.6,6,10,-1,6153,13

# Reformatted: 6 of the compounds above.
# Results follow in this order: PrP 5UTR inh, RN4220 kill, BJeLR lethal, Mtb hypoxia inh, Mtb hypoxia inh growth, Bead autofluor, Sa ugtP lethal
> Cc1ccc(/C=C/C(=O)Nc2ccc([N+](=O)[O-])c(NC(=O)/C=C/c3ccc(C)o3)c2)o1
→ -13, 2.0, -29, 0, 7, 2367, -1
> C/C(=N\NC(=O)c1cc(C(C)(C)C)[nH]n1)C12CC3CC(CC(C3)C1)C2
→ -25, nt, 1, nt, nt, 4139, nt
> CC(C)[C@H](NC(=O)c1ccccc1)C(=O)Nc1ccc2c(c1)OCO2
→ -2, 2.2, nt, 3, 3, 3919, 6
> CC(OC(=O)c1cc(S(=O)(=O)N(C)c2ccccc2)ccc1Cl)C(=O)Nc1ccc2c(c1)OCCO2 (stereo not drawn)
→ -10, -2.1, 4, 2, 7, 2394, -8
> COCCN1C(=O)c2oc3c(C)cc(C)cc3c(=O)c2C1c1cccc(O)c1 (stereo not drawn)
→ -17, 5.9, -3, 0, 2, 9531, -1
> Cc1ccc(NC(=O)c2cc3nc(C)cc(C)n3n2)cc1
→ -71, 21, -6, 17, 15, 20310*, 14
